# NPYLR7 agonist = mosquito NPYLR7 agonism; AID 1259423; HEK293T NPYLR7/Galpha15, GCaMP6s calcium fluorescence; 270,000 compounds, 0.15% hits; activation, % at 10 µM; in the data active means activation above about 40%;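 further: 0% = vehicle and 100% = reference agonist at the receptor; some compounds past the cut are filed as inactive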
# NPYLR7 agonist max-min = recorded beside NPYLR7 agonist, whose call it bears; activation, %; measured here: Max-Min RFU normalised activation; some inactives read as strong as hits;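 span of the calcium signal over five minutes; 0% = vehicle and 100% = native peptide agonist; compound fluorescence can raise it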
# The depositor's hits bear a star; & = joins results of further samples.
SMILES,NPYLR7 agonist,NPYLR7 agonist max-min
CC1CCCN(CC(=O)N(CC2CCCO2)C2CCS(=O)(=O)C2)C1 (stereo unspecified),-5.2,-5.9
COc1ccc(C(=O)Nc2nnc(SCc3cccc(OC(F)(F)F)c3)s2)cc1,5.8,8.9
O=C(Nc1ccc(N2CCN(C(=O)c3cccs3)CC2)cc1)c1ccc(F)cc1,-4.7,-10.0
CN1CCC(N2CCCC(NC(=O)c3cc(-c4ccccc4)nn3-c3ccccc3)C2)CC1 (stereo unspecified),14.1,1.7
Cc1nn(CC(=O)Nc2c(C)n(C)n(-c3ccccc3)c2=O)c(C)c1[N+](=O)[O-],-0.6,-10.8
CC(C)(C)c1ccc(S(=O)(=O)NC(=O)C2(C)CCN2C(=O)Cc2ccc(-c3ccccc3)cc2)cc1 (stereo unspecified),1.0,-1.3
N#Cc1cc(S(N)(=O)=O)ccc1NC1CCc2ccc(F)cc21 (stereo unspecified),-15.6,-17.3
COc1ccc(C(=O)NCCCNC(=O)[C@H]2CCCN2C(=O)c2ccc([N+](=O)[O-])cc2)cc1,24.3,28.8
COc1cc(C)ccc1Oc1cc(C)nc(SCc2ccc(C(C)(C)C)cc2)n1,9.1,6.7
O=C(NCc1ccc2c(c1)OCO2)c1ccc(CSc2nnc(-c3ccco3)n2-c2ccc(F)cc2)cc1,5.7,11.0
Cc1ccc(OCc2cc(C(=O)NCc3nc4ccccc4s3)no2)cc1C,-5.1,-6.4
COc1ccc(C2CCCCCN2C(=O)C2CCN(C(=O)OC(C)(C)C)CC2)cc1 (stereo unspecified),14.7,12.1
CCOC(=NC1CC1)NC(=O)c1ccccc1C,-9.7,-7.0
COCCN(Cc1cc(NC(=O)NC(C)(C)C)ccc1N(C)C)C(=O)c1cccs1,3.1,14.3
CCCc1cnc(C)nc1NC1CC(=O)N(Cc2ccccc2Cl)C1 (stereo unspecified),10.0,5.9
CCNc1ccnc(N2Cc3cnc(-c4ccccc4)nc3C2)n1,2.2,-2.2
CN1CCN2C[C@@H](NC(=O)Cc3nc4ccc(Cl)cc4[nH]3)C[C@H]2C1,-0.5,-9.6
O=C(c1ccc(N2CCC(NCC3CCCN(c4ncccn4)C3)CC2)cc1)N1CCOCC1 (stereo unspecified),-0.8,-6.4
Cc1ccc(Cn2cnc3c(nnn3Cc3ccc(F)cc3)c2=O)cc1,7.7,10.3
Cc1ccc(NC2SC(=O)N(CCN3C(=O)c4ccccc4C3=O)C2=O)cc1 (stereo unspecified),-0.7,4.1
CCN(CC)C(=O)Oc1ccc2c(ccn2Cc2cc(F)c(F)cc2F)c1-c1ccc(F)c(Cl)c1,10.9,10.7
COCC(=O)Nc1ccc(-c2c(-c3ccccc3F)nn(-c3ccc(F)cc3)c2OC(C)=O)cc1,-0.8,0.2
CCOC(=O)C(c1cccc(OC)c1)C1C=CC(NC(=O)c2ccccc2SC(F)F)C1 (stereo unspecified),1.6,0.4
S=c1sc2ccc(Cl)cc2n1CN1CCN(c2ncccn2)CC1,2.7,-0.6
CC(C)(O)[C@@H]1CCC[N+]2(C)CCCC[C@H]12 (stereo partly specified),5.6,4.5
CN(c1ccccc1)S(=O)(=O)c1ccc(Br)s1,-0.9,-4.7
c1ccc(CN2CCN(c3nc(CN4CCOCC4)nc4scc(-c5cccs5)c34)CC2)nc1,7.2,6.0
COCC(=O)Nc1ccc(N(C)C)c(CN(Cc2ccco2)C(=O)C2CC2)c1,25.7,32.3
COC(=O)c1cscc1NC(C)=O,5.6,5.6
COc1cc(C(=O)N(C)C)ccc1NC(=O)Cc1ccccc1C,1.4&0.9,-0.4&-0.6
O[C@@]12C[C@@H]([C@H]3CO[C@@H]1O3)N1CCSC1=N2,-1.9,-3.5
O=C(Cn1cnc2c(nnn2Cc2ccc(F)cc2)c1=O)N1CCCC1,7.2,10.7
CCCN1CCC(C(=O)NC(c2ccc(Cl)cc2)c2ccsc2)CC1 (stereo unspecified),4.2,1.1
CCC(C)CNC(=O)c1ccccc1N1CCC(NC(=O)c2ccc(Br)cc2)CC1 (stereo unspecified),17.8,10.6
COc1ccc(C(=O)N(Cc2cccnc2)c2nc3ccc(Br)cc3s2)cc1OC,-6.6,-1.3
O=c1[nH]c(SC2CCCC2)nc2c1cnn2Cc1ccc(F)cc1,-1.7,-2.5
O=C(c1coc(CN2CCN(c3ncccn3)CC2)n1)N1CCN(c2ccccc2)C(=O)C1,4.7,0.4
Cc1cc(NC(=O)C(C)Oc2ccccc2)n(-c2ncnc3c2cnn3-c2cccc(C)c2C)n1 (stereo unspecified),5.4,5.3
Cc1c(Br)c([N+](=O)[O-])nn1CC(=O)Nc1sc2c(c1C#N)CCC(C)C2 (stereo unspecified),-1.3,-5.6
O=C(c1ccc(OC(F)F)cc1)N1CCOC(COc2ccc3c(c2)CCCC3)C1 (stereo unspecified),12.2,8.2

# A stretch from the list above, as a working copy:
SMILES,NPYLR7 agonist,NPYLR7 agonist max-min
CC1CCCN(CC(=O)N(CC2CCCO2)C2CCS(=O)(=O)C2)C1 (stereo unspecified),-5.2,-5.9
COc1ccc(C(=O)Nc2nnc(SCc3cccc(OC(F)(F)F)c3)s2)cc1,5.8,8.9

# Carrying on.
SMILES,NPYLR7 agonist,NPYLR7 agonist max-min
Cc1nc(SCc2ccc(C(=O)NCc3ccco3)cc2)nc(N(C)C)c1C,29.4,23.5
O=C(Nc1ccc(Cl)cc1)c1c(O)c2ccccc2[nH]c1=O,4.1,2.5
Cc1cc(C(=O)NNC(=O)CSc2ncnc3sc(C)c(C)c23)c(C)o1,-5.0,-6.3
Cc1ccc(C)c(-n2[nH]c(-c3ccccc3)c(-c3ccc(N)cc3)c2=O)c1,23.5,19.7
CN1CCN(C(=O)CN2C(=O)CSC2c2cccs2)CC1 (stereo unspecified),-0.1,3.1
Cc1ccc(C)c(N(C)C(=O)c2ccc(NC(=O)C3CC3C)cc2)c1 (stereo unspecified),6.1,2.7
COc1ccc(/C=C2\SC(=S)N(CC(=O)NNC(=O)c3cccnc3)C2=O)cc1,-4.3,-2.4
N#CCCCOc1cccnc1NC(=O)c1cccc(Cl)c1,12.4,6.7
COc1ccc(-n2ccnc2C2CCOC2)cn1 (stereo unspecified),9.5,0.8
COc1ccc(CN2CCN(Cn3nc(-c4ccncc4)n(C)c3=S)CC2)cc1OC,1.7,3.7

# Overlap with the part before: four compounds, followed by the next part.
SMILES,NPYLR7 agonist,NPYLR7 agonist max-min
COc1ccc(/C=C2\SC(=S)N(CC(=O)NNC(=O)c3cccnc3)C2=O)cc1,-4.3,-2.4
N#CCCCOc1cccnc1NC(=O)c1cccc(Cl)c1,12.4,6.7
COc1ccc(-n2ccnc2C2CCOC2)cn1 (stereo unspecified),9.5,0.8
COc1ccc(CN2CCN(Cn3nc(-c4ccncc4)n(C)c3=S)CC2)cc1OC,1.7,3.7
Cc1cccc(Cc2nc3c(c(N4CCOCC4)n2)CN(C(=O)c2cccc([N+](=O)[O-])c2)CC3)c1,-0.7,6.9
O=C1OCCN1c1ccccc1NS(=O)(=O)c1ccc(F)cc1F,-2.0,-1.9
CC(c1ccc(F)cc1)N(C)C(=O)c1ccc(=O)[nH]n1 (stereo unspecified),10.5,5.9
CCCCNC(=O)N1CCN(c2cc(Cl)nc(SCC(=O)N3CCN(c4cccc(Cl)c4)CC3)n2)CC1C (stereo unspecified),13.5,11.2
COc1cccc(C(=O)CSc2nnc(N)s2)c1,11.2,8.2
Cc1[nH]ncc1CNC(C)c1ccc(N2CCN(C)CC2)cc1 (stereo unspecified),2.2,0.0
O=C1OC(c2ccc(Cl)cc2)=N/C1=C\N1CCOCC1,-1.6,-6.3
N#Cc1ccccc1CN(Cc1ccco1)Cc1ccco1,4.7,4.3
COCc1nc(C)c(CNC(=O)c2scc3c2CCCC3)s1,5.8,3.5
CC(C)(C)NC(=O)COc1cc(N2CCOCC2)c2ccccc2c1Cl,-16.3,-23.2
O=C(c1ccc(-c2cccc(CN3CCOCC3)c2)o1)N1CCCCC1,0.7,1.4
COC(=O)c1ccc(CSc2n[nH]c(C(C)C)n2)o1,3.4,-0.8
CCCCN(Cc1cccn1Cc1cccc(C)c1)C(=O)CN(CCOC)C(=O)c1cc(OC)cc(OC)c1,-8.6,-5.7
COc1ccc(OC)c(N2CCN(C(=O)c3ccc([N+](=O)[O-])cc3)C(C)C2=O)c1 (stereo unspecified),4.6,8.8
O=C(COc1ccccc1)N1CC[C@H]2CC(=O)N(c3ccccc3)CC[C@H]2C1,-9.9,-15.7
Cc1ccc(CC(=O)C(C#N)C(=O)Nc2c(C)cccc2C)cc1 (stereo unspecified),17.2,12.6
CCC(C)c1ccc(C(NC(=O)Cn2c(=O)c3c(ncn3C)n(C)c2=O)C(C)C)cc1 (stereo unspecified),-2.1,-3.4
Cn1ccc(NC(=O)c2cc3c(s2)CCC(C(C)(C)C)C3)n1 (stereo unspecified),1.1,1.1
CCOC(=O)c1cc(-c2ccc(CC)cc2)n(-c2ccc(C(=O)NCc3ccc(C(F)(F)F)cc3)cc2)n1,2.8,2.8
COc1ccccc1CNC(=O)c1nnn(Cc2ccc(F)cc2)c1N,-0.1,6.1
CCn1c(SCC(=O)Nc2ccc3c(c2)OCO3)nnc1-c1c(C)nc2sccn12,-2.1,-2.0
Cc1cc(C)c(S(=O)(=O)N2CCN(C(=O)NCCCOC(C)C)CC2)c(C)c1,15.7,18.2
O=S(=O)(NCCC1CCCO1)c1cnc(Cl)c(Cl)c1 (stereo unspecified),7.6,5.3
Cc1nc2cc(C(F)(F)F)ccc2n1C1CCN(C(=O)c2sccc2Cl)CC1,5.2,1.7
CC(C)c1nc(CN(C)Cc2cncn2C)cs1,2.8,2.3
N=c1oc2c([N+](=O)[O-])cc(Cl)cc2cc1-c1ccccn1,5.0,4.3
Cc1cc2ccccn2c1C(=S)N=P(C1CCCCC1)(N1CCOCC1)N1CCOCC1,-5.3,-9.9
CCc1cc2c(=O)n(Cc3ccco3)c(SCC#N)nc2s1,2.8,1.8
CC1CN(C(=O)OC(C)(C)C)CC(C)N1C(=O)C1COCCO1 (stereo unspecified),-5.1,-7.4
C=C(C)COc1ccccc1C(=O)NC(C)c1cn2ncsc2n1 (stereo unspecified),6.9,7.8
Cc1cc(=O)[nH]c(-n2ncc(C(=O)Nc3ccc(OC(F)(F)F)cc3)c2C)n1,-1.0,-0.8
O=C(Nc1ccc(SCc2cccnc2)cc1)C1=COCCO1,6.7,5.1
CC(NC1CCN(c2sccc2C#N)C1=O)c1ccc(F)c(F)c1 (stereo unspecified),-0.3,2.4
CC(=NNC(=S)NC(C)C)c1ccc(Cl)s1,1.5,2.5
COc1ccc(NC(=O)Cn2nc(-c3ccco3)c3sc(N4CCCCC4)nc3c2=O)cc1OC,-3.7,-7.4
CC(c1ccccc1)n1c(SCC(=O)O)nnc1-c1ccncc1 (stereo unspecified),9.0,7.2
COc1ccccc1CC(=O)N1CCOC(COc2ccc(C)cc2)C1 (stereo unspecified),-6.3,-8.1
CCN(Cc1ccc(C(=O)N(C)OC)cc1)C(C)C,0.8,-1.9
CCc1c(C)nn(CC(=O)N2CCCC(c3nn(C)c(=O)n3CC)C2)c1C (stereo unspecified),-1.4,-4.3
CCOC(=O)c1cc(-c2ccc(N3CCN(C(=O)Cc4ccccc4)CC3)cc2)n(-c2ccccc2OC)n1,-0.6,-0.3
CCN1CCN(S(=O)(=O)c2ccc(OC)c(N3CCN(C(=O)c4ccc([N+](=O)[O-])o4)CC3)c2)CC1,11.3,13.9
CC(c1ccncn1)N(C)c1nc2nonc2nc1N1CCCCCC1 (stereo unspecified),8.8&16.3,8.7&3.6
Cc1cccc2c3nc4ccccc4nc3n(CC#N)c12,-0.9,3.6
O=C1CN(S(=O)(=O)c2ccc(OC(F)(F)F)cc2)CCN1,6.8,6.3
Cc1cc(F)cc2c1N(C(=O)C(C)NC(=O)c1ccoc1)CCC2 (stereo unspecified),-19.0&-1.6,-20.7&7.0
CC(=O)NC(C(=O)N(C)Cc1ccccc1Cl)C(C)C (stereo unspecified),4.2,2.4
CCN(C(=O)C1CCCN(S(=O)(=O)c2ccc(C)s2)C1)c1ccccc1 (stereo unspecified),10.4,8.7
Cc1ccc(N=Nc2c(-c3ccccc3)[nH]n(-c3nc(-c4ccccc4)cs3)c2=O)cc1[N+](=O)[O-],5.7,17.0
Cc1c(Cl)cccc1N1C(=O)C2CC=CCC2C1=O (stereo unspecified),-12.3,-13.7
CNC(=O)CSc1nc(-c2ccccc2)c(NC(=O)c2ccccc2OC(C)=O)s1,-9.3,-13.5

# New compounds follow
SMILES,NPYLR7 agonist,NPYLR7 agonist max-min
CCOC(=O)c1nc2ccccc2nc1N1CCCN(C(=O)CCCCC(=O)OC)CC1,4.2,-0.3
COc1cccc(Cc2c(C)nc(C)nc2N2CCN(C(=O)COc3ccc(Cl)cc3)CC2)c1,21.4,20.1
C=CCN(Cc1cccs1)Cn1nc(C(=O)NC)c2ccccc2c1=O,-2.3,2.4
CC(=O)Nc1ccc(Nc2c3c(nc4c(-c5ccccc5)c(C)nn24)CCCC3)cc1,4.7,2.0
O=C(NCCn1ncc2c(N3CCCCCC3)ncnc21)c1cnccn1,-0.8,-3.5
CCc1nc2c(OCC(=O)c3ccc(F)cc3)cccn2c1N(C)C(=O)c1ccco1,10.1,-4.7
Cc1ccc(-n2ncc(C(=O)NC[C@@H]3CC[C@H]4C[C@@H]3C4(C)C)c2N)c(C)c1,2.0,15.1

# In the list so far, 5 have a CF3 group.
SMILES,NPYLR7 agonist,NPYLR7 agonist max-min
COc1ccc(C(=O)Nc2nnc(SCc3cccc(OC(F)(F)F)c3)s2)cc1,5.8,8.9
CCOC(=O)c1cc(-c2ccc(CC)cc2)n(-c2ccc(C(=O)NCc3ccc(C(F)(F)F)cc3)cc2)n1,2.8,2.8
Cc1nc2cc(C(F)(F)F)ccc2n1C1CCN(C(=O)c2sccc2Cl)CC1,5.2,1.7
Cc1cc(=O)[nH]c(-n2ncc(C(=O)Nc3ccc(OC(F)(F)F)cc3)c2C)n1,-1.0,-0.8
O=C1CN(S(=O)(=O)c2ccc(OC(F)(F)F)cc2)CCN1,6.8,6.3

# An excerpt; rates above refer to the full screens.
